Assay outcomes: PubChem, National Center for Advancing Translational Sciences (NCATS)
Six1-Eya2 blk: Six1/Eya2 interaction inhibition; Q15475+O00167; AlphaScreen GST-Six1/His-Eya2 binding, biochemical; active compounds read low; control for the full effect not named in the record; activity change, % (no concentration beside the values); hit rate 0.56% among 360,000; in the data active = activity change below about -65%; inconclusive = about -30% to -65%; inactive = above about -30%; note: % is set by controls: 0 for no effect and ±100 for the full control effect
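GST-Six1 + His-Eya2 (5X stock: 250/500 nM); Tris pH 8.0, 300 mM NaCl, 0.05% BSA, 0.02% Tween 20; GSH donor/Ni acceptor beads; 1 h 37 °C dark; AlphaScreen readout.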
D2 ag: human D2 receptor agonism in beta-arrestin assay. DiscoveRx PathHunter D2 beta-arrestin, luminescence, 90 min; 100% = 57 uM dopamine signal. activation, % (test concentration not listed). hit rate 0.084% among 360,000. AID 624465; in the data active = activation above about 40%; inconclusive = about 15% to 40%; inactive = below about 15%; note: compound concentration not given in the record; the text of the record calls up to 30% inactive
Target sequence (P14416 whole entry, looked up): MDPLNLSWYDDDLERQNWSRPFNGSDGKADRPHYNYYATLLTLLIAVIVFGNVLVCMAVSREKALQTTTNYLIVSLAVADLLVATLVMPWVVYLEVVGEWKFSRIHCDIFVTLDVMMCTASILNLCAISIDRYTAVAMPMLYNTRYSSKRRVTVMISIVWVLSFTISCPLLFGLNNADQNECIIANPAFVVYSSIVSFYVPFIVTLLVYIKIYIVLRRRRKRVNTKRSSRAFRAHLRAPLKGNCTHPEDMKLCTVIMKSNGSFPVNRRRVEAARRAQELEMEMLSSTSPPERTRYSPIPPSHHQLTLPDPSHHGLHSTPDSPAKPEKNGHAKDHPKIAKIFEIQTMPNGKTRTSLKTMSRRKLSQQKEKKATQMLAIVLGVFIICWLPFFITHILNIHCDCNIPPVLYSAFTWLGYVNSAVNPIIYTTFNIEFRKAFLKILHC
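Agonist mode: compounds alone added to overnight-plated D2 PathHunter cells for 90 min at 37 C, with 57 uM final dopamine (EC100) defining full response. Beta-arrestin recruitment detected by chemiluminescent reagent, read after 1 h at ambient temperature.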
CtBP-E1A blk: inhibitors of CtBP/E1A interaction; AlphaScreen GST-E1A/His-CtBP binding, 1536-well; active compounds read low; control for the full effect not named in the record; activity change, % (test concentration not listed); hit rate 0.49% among 340,000; AID 651724; in the data active means activity change below about -65%; inconclusive means about -30% to -65%; inactive means above about -30%; note: % is set by controls: 0 for no effect and ±100 for the full control effect
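GST-E1A and His-tagged CtBP (125 nM each as 5X stock) were preincubated with pin-transferred compound for 2 h at 37 °C in the dark, then glutathione donor and nickel acceptor beads were added for 1 h before AlphaScreen reading.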
D2 PAM: human D2 receptor positive allosteric modulation; DiscoveRx D2 beta-arrestin cells, luminescence, 90 min; 100% = 57 uM dopamine signal; potentiation, % (concentration not given with the values); hit rate 0.23% among 360,000; AID 624464; active = potentiation of 50% or more; inconclusive = 30% to 50%; inactive = 30% or less;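 note: compound concentration not given in the record; tested on top of an EC20 dose of dopamine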
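D2 cells co-treated with compound plus 50 nM dopamine (EC20) for 90 min at 37 deg C to detect potentiation. Beta-arrestin recruitment was read as enzyme-fragment luminescence after 1 h at ambient temperature. Full response was set by 57 uM dopamine.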
TRPML1 ag: human mucolipin-1 channel agonism. Q9GZU1. TRPML1-expressing cells, Ca2+ dye fluorescence, FDSS; host cell line not named in the record; reference of the full effect not given here. activation, % (no concentration beside the values). hit rate 0.12% among 410,000. AID 624414; in the data active = activation above about 50%; inconclusive = about 30% to 50%; inactive = below about 30%; note: 0% is about no effect; the text of the record puts the active cut at 80%
Target sequence (Q9GZU1 whole entry, looked up): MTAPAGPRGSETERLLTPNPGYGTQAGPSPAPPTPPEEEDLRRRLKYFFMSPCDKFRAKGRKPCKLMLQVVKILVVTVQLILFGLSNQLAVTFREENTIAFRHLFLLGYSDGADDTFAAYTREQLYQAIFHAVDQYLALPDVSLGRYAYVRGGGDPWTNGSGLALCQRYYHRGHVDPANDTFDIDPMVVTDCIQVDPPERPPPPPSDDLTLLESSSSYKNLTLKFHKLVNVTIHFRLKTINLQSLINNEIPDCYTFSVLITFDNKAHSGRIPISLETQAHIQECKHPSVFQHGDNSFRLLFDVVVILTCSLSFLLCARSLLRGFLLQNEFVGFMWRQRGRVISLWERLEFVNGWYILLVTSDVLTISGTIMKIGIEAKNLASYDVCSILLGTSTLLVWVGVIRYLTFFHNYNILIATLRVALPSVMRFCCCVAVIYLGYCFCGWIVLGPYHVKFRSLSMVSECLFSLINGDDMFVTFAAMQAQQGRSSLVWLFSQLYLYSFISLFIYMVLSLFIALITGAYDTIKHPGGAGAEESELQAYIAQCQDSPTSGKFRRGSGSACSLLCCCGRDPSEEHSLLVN
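In this qHTS format, compounds were pin-transferred onto Ca8-dye-loaded TRPML1-DL cells induced with Tet overnight, and intracellular Ca2+ fluorescence was recorded kinetically for 110 s after a 10 s baseline. A subsequent 4uM final 54-4 (EC80) addition followed by a second 110 s read served as the antagonist phase.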
PINK1 modulator: PINK1 expression modulation; Potency, µM (doses to about 76.6 µM), without a hit: at the highest dose activation (PINK1 increase), most hits filed as activators; hit rate 0.2% among 410,000; PINK1 immunofluorescence, high-content cytometry, 24 h; active = well fitted activation curve with a large enough effect; inconclusive = small, poorly fitted or top-dose-only effect; inactive = flat fitted curve, though single readings scatter; cell line not stated here;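 note: potency is the fitted concentration of half-maximal effect; % of control where 0% means no effect; nearly all actives have a fitted effect of over 65% in size; a mitochondrial uncoupler was the plate control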
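Cells are seeded, rested 12 hours, then given compound at five concentrations or DMSO for 24 hours. After fixation, blocking and antibody staining, PINK1 amount and mitochondrial localization are scored; CCCP serves as control.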
Numbers without * were called inactive; ? = inconclusive; / = not tested or not shown; & = joins results of further samples; [ ] = another dose, or the depositor's remark. Some of the compounds tested (hit frequency here may not be typical).

SMILES	Six1-Eya2 blk	D2 ag	CtBP-E1A blk	D2 PAM	TRPML1 ag	PINK1 modulator
CCN(CC)CCCN=C(C)c1c(O)n(-c2ccccc2)c(=O)[nH]c1=O	4	-2.9	6	-11	-0.6	?
Nc1cc(Cl)cc(Cl)c1	-1	-2.6	6	2	-0.7	-0.1%
Brc1ccc(Oc2cc(Br)c(Br)cc2Br)c(Br)c1	7	-1.4	15	-3	-0.8	3.5%
CN(C)c1nc(N(C)C)nc(N(C#N)CCCl)n1	1	1.1	-13	6	0.0	0.2%
COC(=O)C1=C(c2cc3ccccc3o2)C[C@@H]2CC[C@H]1N2C(=O)NCCCOC(C)C	1	-2.0	11	-8	-0.6	-0.7%
Cn1cccc1/C=C1\C(=O)NC(=O)N(CCC2=CCCCC2)C1=O	-1	-2.2	-2	-1	1.1	14%
CN1CCN(c2ncnc3ccc(Br)cc23)CC1	6	-1.8	3	-43	0.1	1.6%
CCn1c(O)c(C=Nc2ccc(N3CCOCC3)cc2)c(=O)n(CC)c1=S	7	0.2	6	12	?	6.9%
COc1ccc(C2N(c3cc(C)on3)C(=O)C3CCCN32)cc1 (stereo unspecified)	-3	-4.5	2	-8	-0.5	-0.8%
O=C(O)c1cccc(N=Nc2c(O)[nH]c(=O)[nH]c2=O)c1	12	-2.0	0	-2	/	0.2%
Cc1ccc(S(=O)(=O)N2CCCCC2)cc1NC(=O)CN1CC=C(c2ccccc2)CC1	-11	-4.5	-4	-11	-1.4	-0.7%
CCCCN1C(=O)NC(=O)C2(Cc3c(nc4c(C)cccn4c3=O)N3CCc4ccccc4C32)C1=O (stereo unspecified)	-8	-4.9	-14	-13	4.4	-3.3%
CN1C(=O)C(c2ccc([N+](=O)[O-])cc2[N+](=O)[O-])C(=O)N(C)C1=O	-3	-17	/	-19	-0.9	0.1%
N#CC(C#N)=Cc1ccc(O)c(O)c1	-4	-3.7	5	-5	-0.1&-0.2	1.5%&1.7%
N/C(=N\[N+](=O)[O-])N1CCN(C(=O)c2ccccc2)CC1	9	-13	0	-22	0.6	-0.2%
Cc1cc(C(=O)CN2CCCC2)c(C)n1-c1ccc(F)cc1	-12	-5.8	-3	-6	-0.7	-0.6%
C[N+]12CCC(CC1)C(C(O)(c1ccccc1)c1cccs1)C2 (stereo unspecified)	0	1.6	7	-13	-0.6	/
CCN1CCC(O)(c2ccccc2)C(C(=O)c2ccccc2)C1 (stereo unspecified)	-3	-3.9	-1	-7	0.1	-1.8%
O=C(NCC1=C(c2cccc3ccccc23)C[C@@H]2CC[C@H]1N2Cc1ccco1)c1ccc([N+](=O)[O-])cc1	?	-10	?	-9	-0.3	2.9%
O=P1(Nc2ccc(F)cc2)COc2ccccc2OC1	-2	-1.9	-3	-5	-0.1	1.4%
CCOC(=O)C(NC(=O)CC)(Nc1ccc(C(O)(C(=O)OCC)C(F)(F)F)cc1C)C(F)(F)F (stereo unspecified)	-2	-4.1	9	0	-0.1	-2.2%
CCC(=O)OC1(c2cccc(C)c2)CC(C)N(C)CC1C (stereo unspecified)	9	-2.0	4	8	-0.5	1.0%
CC1[C@H]2Cc3ccc(O)cc3[C@]1(C)CCN2CCc1ccccc1 (stereo partly specified)	1	2.8	-8	-24	-0.2	0.3%
CC1(C)CC(n2[nH]c(=O)c3c2NC(=O)CSC3c2ccccc2)CCO1 (stereo unspecified)	23	-4.1	0	0	0.2	-2.1%
CC(C)(C)n1nnnc1C(CCc1ccccc1)N1CCC(n2c(=O)[nH]c3ccccc32)CC1 (stereo unspecified)	-1	14	0	3	-0.1	0.7%
Fc1ccc(NC2=NCCS2)cc1Cl	2	-1.8	-1	-6	-0.2	1.6%
Cc1ccc(-n2c(O)c(C=NC3CCCCC3N)c(=O)[nH]c2=O)cc1C (stereo unspecified)	-11	-0.5	-1	-9	-1.1	2.3%
CCOP(=O)(OCC)C(NC(=O)c1ccc(C)cc1)C(Cl)(Cl)Cl (stereo unspecified)	5	-1.6	6	-4	0.5	2.6%
O=C1NC(=O)N(Cc2ccco2)C(=O)/C1=C\c1cccn1CCOc1ccccc1	-3	0.1	13	-1	13	-0.3%
CN1CCN(c2ccc(N)cc2Cl)CC1	-21	-0.9	/	-18	0.4	2.1%

4 compounds out of the list, sorted by length of the SMILES, highest first:
SMILES	Six1-Eya2 blk	D2 ag	CtBP-E1A blk	D2 PAM	TRPML1 ag	PINK1 modulator
CCOC(=O)C(NC(=O)CC)(Nc1ccc(C(O)(C(=O)OCC)C(F)(F)F)cc1C)C(F)(F)F (stereo unspecified)	-2	-4.1	9	0	-0.1	-2.2%
CCN1CCC(O)(c2ccccc2)C(C(=O)c2ccccc2)C1 (stereo unspecified)	-3	-3.9	-1	-7	0.1	-1.8%
CCC(=O)OC1(c2cccc(C)c2)CC(C)N(C)CC1C (stereo unspecified)	9	-2.0	4	8	-0.5	1.0%
O=P1(Nc2ccc(F)cc2)COc2ccccc2OC1	-2	-1.9	-3	-5	-0.1	1.4%

Entries of single compounds as entered above. Values in the order: Six1-Eya2 blk, D2 ag, CtBP-E1A blk, D2 PAM, TRPML1 ag, PINK1 modulator
Entry for CC(C)(C)n1nnnc1C(CCc1ccccc1)N1CCC(n2c(=O)[nH]c3ccccc32)CC1 (stereo unspecified) : -1, 14, 0, 3, -0.1, 0.7%
Entry for C[N+]12CCC(CC1)C(C(O)(c1ccccc1)c1cccs1)C2 (stereo unspecified) : 0, 1.6, 7, -13, -0.6, /

(list continues)
SMILES	Six1-Eya2 blk	D2 ag	CtBP-E1A blk	D2 PAM	TRPML1 ag	PINK1 modulator
O=C1C(c2ccccc2)=C(N2CC2)c2ccccc21	?	-3.9	?	-19	2.1	0.8%
Cc1nc2cc(-c3ccc(Cl)cc3)nn2c(C)c1CCC(=O)N1CCC2(CC1)OCCO2	0	-1.1	-9	-9	0.0	11%
O=C(O)CC[N+](=O)[O-]	1	-0.5	2	-4	-0.9	2.2%
CCc1ccc(CNCCc2c[nH]c3ccccc23)cc1	-17	-3.0	/	-77	/	?
N#CCCn1cc(C(=O)NCc2ccccc2)c(-c2ccccc2)n1	2	-1.1	5	2	0.9	-0.3%
CC(=O)O[C@H]1C(=O)[C@@]2(C)C([C@H](OC(=O)c3ccccc3)[C@]3(O)C[C@H](O)C(C)=C1C3(C)C)[C@]1(OC(C)=O)CO[C@@H]1C[C@H]2O (stereo partly specified)	3	2.6	5	-17	/	6.3%
COc1ccc(OCC(=O)N2CCN(Cc3ccc4c(c3)OCO4)CC2)cc1	-9	-1.2	-11	-18	-0.3	0.3%
C=CCC1(Cc2ccsc2)C(=O)NC(=O)NC1=O	2	-4.7	21	-3	0.2	-1.3%
COc1cccc(-n2c(O)c(C=NCCN3CCNCC3)c(=O)[nH]c2=S)c1	-4	-0.6	0	1	0.4	2.9%
OC(CNCc1ccccc1)c1ccc(Cl)cc1 (stereo unspecified)	-2	-1.4	2	-13	0.7	5.5%
COC(=O)C1=C(c2ccccc2OCc2ccccc2)C[C@@H]2CC[C@H]1N2C(=O)NCCOc1ccccc1Cl	-7	1.2	-2	-9	2.9	0.4%
CC(=O)NC(=O)NC(C)Cc1ccccc1 (stereo unspecified)	8	-1.1	-4	9	-0.5	-1.2%
Cc1ccc(C(=O)Nc2ccc(Cl)cc2C(=O)c2ccccc2)cc1	-4	-2.3	2	-5	1.0	9.9%[38.3 µM]
CC(=O)O[C@@H]1/C=C/[C@](C)(O)C[C@@H](C)C/C=C/[C@H]2[C@H](O)[C@@](C)(O)[C@@H](C)[C@H]3[C@H](Cc4ccccc4)NC(=O)[C@@]312	0	-1.5	-6	-20	/	2.1%
C=CCNC(=O)c1c(N)n(CCN2CCOCC2)c2nc3ccccc3nc12	4	3.7	6	1	0.8	-6.3%[38.3 µM]
CCCn1c(C(=O)c2ccccc2OC)nc2ccccc21	-4	0.9	14	-3	0.5	1.3%
CCC(CO)Nc1ccc([N+](=O)[O-])c2cccnc12 (stereo unspecified)	-9	-2.3	-2	-9	-1.0	-3.2%
C1=C(c2c[nH]c3ccccc23)CCN(Cc2ccccc2)C1	-22	-19	2	6	3.2	24%
COc1ccc(-c2cc(=NCCCCCC(=O)O)c3cc(C)ccc3o2)cc1	-83*	-7.3&-0.8	-90*	-4&-6	0.4&1.3	1.3%&0.7%
CCCCn1c(O)c(C(CC)=Nc2ccc(C(=O)O)cc2)c(=O)[nH]c1=O	7	-0.8	8	-5	-0.4	5.1%
Cn1cc(C(=O)NC2CC2)c2ccccc21	-3	-2.5	9	-5	0.5	1.0%
O=c1c2ccccc2nc(-c2ccccc2)n1-c1ccccc1O	7	1.3	3	-1	-0.1	5.3%
C#C[C@]1(O)CCC2C3C(CC[C@@]21C)[C@@]1(C)CC[C@@H](O)CC1=C[C@H]3O (stereo partly specified)	1	-0.5	5	-10	0.5	-0.4%
COC(=O)C1=C(c2ccc(OC)c(OC)c2)C[C@@H]2CC[C@H]1N2C(=O)NC1CC1	6	1.0	2	-4	-0.6	0.3%
CCC(CO)(C(=O)OC1C[N+]2(C)CCC1CC2)c1ccccc1 (stereo unspecified)	-1	-1.1	4	-9	-0.7	0.2%
CC/C(=N\N1CCCCCC1)c1c(O)n(-c2ccccc2C)c(=O)[nH]c1=O	-6	-0.5	0	-12	3.2	1.3%
C[N+](C)(C)CC1CCCC(C[N+](C)(C)C)C1=O (stereo unspecified)	-2	-1.2	1	-11	0.0	0.6%
CCc1ccc(NC2=NCCCS2)cc1	1	0.0	1	-9	0.0	1.1%
COc1cccc(C(=O)N2CCC3(CC2)OCCO3)c1	4	-3.2	/	-15	-0.7	0.9%
CCC1(C(=O)c2ccc(C)cc2)C2c3ccccc3OC(=O)C21C(=O)O (stereo unspecified)	5	-0.4	5	-2	0.5	2.4%
O=C(CCN1CC2CCC(CC2)C1)c1cccs1	6	0.0	-2	-16	-0.5	-5.0%
CCOP(=O)(OCC)C(O)c1ccc(OC)cc1 (stereo unspecified)	4	0.0	6	2	-0.2	0.9%
CC(=O)CC(=O)C1C(=O)N(C)C(=O)N(C)C1=O	-7	-1.4	0	-23	-0.4	0.7%
Cc1ccc2c(CN3CC=C(c4ccccc4)CC3)cc(=O)oc2c1C	-4	-5.3	-1	-20	0.1	1.0%
CC(CO)(CO)N=Cc1c(O)n(-c2cccc3ccccc23)c(=O)[nH]c1=O	1	0.8	3	/	0.7	0.0%
COc1ccc(C(c2nnnn2-c2ccc(OC)cc2)N2CCC(n3c(=O)[nH]c4ccccc43)CC2)cc1 (stereo unspecified)	-19	/	-21	/	1.5	0.1%
